Screens as filed in PubChem BioAssay.
GALR2 ag = agonists of human galanin receptor 2 (GALR2); O43603; GALR2-expressing cells, agonist activation read-out; activation, %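 (tested at 5 µM)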; 0.48% of 140,000 active; AID 803;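 active = above mean plus 3 SD of all compounds, about 5% in these data, not always enough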;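 note: 0% = vehicle buffer wells and 100% = reference agonist at full effect; tested in CHO reporter cells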
Target sequence (O43603 whole entry, looked up): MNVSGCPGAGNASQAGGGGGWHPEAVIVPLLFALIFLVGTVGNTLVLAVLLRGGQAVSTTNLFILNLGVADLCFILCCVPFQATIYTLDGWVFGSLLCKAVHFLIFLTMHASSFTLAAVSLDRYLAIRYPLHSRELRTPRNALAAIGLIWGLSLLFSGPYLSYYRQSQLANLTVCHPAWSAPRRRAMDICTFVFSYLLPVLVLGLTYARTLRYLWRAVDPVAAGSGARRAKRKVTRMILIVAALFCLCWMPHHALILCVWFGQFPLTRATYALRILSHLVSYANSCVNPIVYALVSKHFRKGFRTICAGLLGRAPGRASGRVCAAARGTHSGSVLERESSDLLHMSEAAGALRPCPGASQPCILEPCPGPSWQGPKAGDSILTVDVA
Insulin prom inh = TRM-6 insulin promoter activity inhibition; TRM-6 cells (human fetal islet line), insulin promoter-eGFP reporter, imaging; reporter expression induced with tamoxifen; inhibition, % at 2 µM; 0.9% of 130,000 active; AID 1273;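 active = inhibition above the mean plus 3 SD, with well images judged a real hit on visual review, cut at about 60% in these data, passing the limit was not always enough; inconclusive = inhibition over the cutoff but images rejected on review; inactive = inhibition not above the cutoff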
PKD1 kinase inh = blocks activity of human protein kinase D1; Q15139; PKD1 kinase fluorescence polarization assay; inhibition, %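 (about 10 µM by stock and volumes)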; 0.056% of 200,000 active;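 active = inhibition of 50% or more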;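 note: controls were vehicle for no effect and a reference inhibitor for full effect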
HSV replic up = HSV replication enhancement | 0.005% of 220,000 active | HSV replication augmentation in cells, fold increase | maximum fold increase;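 active = peak rise of 1.5-fold or more in the series; inconclusive = self-fluorescent or not available for retest; tested in PC3 cells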;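 note: first round at 10 µM; read as green reporter fluorescence; hits show the peak of a series up to 25 µM; 1 = signal of infected wells without compound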
RGS16-Gao HTS = RGS16-Galphao interaction regulator (human). bead-based flow cytometry RGS16-Galphao binding, fluorescence; actives lie on both sides. binding response (% of control), % at 10 µM. 0.38% of 220,000 active. AID 1441;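 active = below 25% or above 175%, edge rows of some plates excepted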;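 note: Galphao activated by GDP with aluminum fluoride before binding; 100% = wells without compound and 0% = beads without RGS; some results beyond the cut were filed as inactive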
Target sequence (O15492 whole entry, looked up): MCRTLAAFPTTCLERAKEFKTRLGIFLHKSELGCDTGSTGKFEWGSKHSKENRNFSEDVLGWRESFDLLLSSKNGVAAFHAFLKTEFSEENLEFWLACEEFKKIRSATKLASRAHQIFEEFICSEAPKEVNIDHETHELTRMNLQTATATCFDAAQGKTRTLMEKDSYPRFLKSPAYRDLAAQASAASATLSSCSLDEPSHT
Target sequence (P09471 whole entry, looked up): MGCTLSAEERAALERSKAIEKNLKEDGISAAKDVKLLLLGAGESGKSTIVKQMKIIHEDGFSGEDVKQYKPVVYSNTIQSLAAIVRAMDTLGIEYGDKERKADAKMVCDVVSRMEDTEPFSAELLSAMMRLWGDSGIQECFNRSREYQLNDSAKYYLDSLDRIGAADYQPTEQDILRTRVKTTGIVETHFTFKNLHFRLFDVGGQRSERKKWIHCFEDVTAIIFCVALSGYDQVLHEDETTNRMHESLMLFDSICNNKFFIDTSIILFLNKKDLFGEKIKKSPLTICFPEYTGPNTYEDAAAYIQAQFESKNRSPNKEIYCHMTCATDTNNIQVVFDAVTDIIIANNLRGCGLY
Insulin prom inh cell count = recorded beside Insulin prom inh, whose call it bears; normalized cell count, %; measured here: cell count, toxicity; reference of the scale not given here;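 cells exposed to compound for 48 h; stained nuclei by imaging scaled within each plate; lower means fewer cells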
HSV replic up primary fold = further read-out of HSV replic up, marked with its call; fold increase; compound at 10 µM; measured here: primary screen fold increase 10 uM; tested in PC3 cells;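 GFP signal in the first replicate; 1 = infected wells without compound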
Active calls of the source: *; i = inactive; u = inconclusive; x = not tested or not shown. Not a hit list. About 1.2% of those tested had a hit in this group.

smiles	GALR2 ag	Insulin prom inh	Insulin prom inh cell count	PKD1 kinase inh	HSV replic up	HSV replic up primary fold	RGS16-Gao HTS
O=C(CSc1nc2cc(Cl)ccc2o1)NCCc1ccccc1	-3.8	-59	266	-10	i	0.99	102
CC(C)OCCCNC(=O)C1CC(=O)N(C2CCCCCCC2)C1 (stereo not given)	-2.0	67	117	5	i	0.88	102
COc1cc2[nH]c(=O)n(CCC(=O)NCc3cccnc3)c(=O)c2cc1OC	-1.5	-6	63	-4	i	0.98	103
CCCCNC(=O)CSc1nc2ccc(NC(=O)CSc3nnc(COc4ccccc4C)n3C)cc2s1	-0.5	10	111	3	x	x	106
COc1ccc(NC(=O)c2nc(C)n(-c3ccc([N+](=O)[O-])cc3)n2)cc1	x	x	x	-8	i	0.99	98
COc1cccc(CNC(=O)C2CCN(S(=O)(=O)N3CCCCC3)CC2)c1	-1.8	15	86	-9	i	1	100
CCc1cccc(C)c1NC(=O)C1CCN(C(=O)c2ccc([N+](=O)[O-])cc2)CC1	x	-24	109	-5	i	0.86	102
O=C(NCC1CCCO1)c1ccc2c3n(nc2c1)-c1ccccc1CO3 (stereo not given)	x	x	x	x	i	0.73	100
CC(C)CC1(C)NC(=O)N(CCN2C(=O)c3ccccc3C2=O)C1=O (stereo not given)	-1.8	5	88	-5	i	0.99	100
COCCCNC(=O)c1ccc(CS(=O)(=O)c2ccc(Br)cc2)o1	-1.9	x	x	-4	i	1.3	101
O=C1NC(=O)/C(=C/c2ccc(OS(=O)(=O)c3ccc(F)cc3F)cc2)N1	x	x	x	x	i	1	96
O=S(=O)(Nc1ncccn1)c1ccc(NS(=O)(=O)c2cc(Cl)ccc2Cl)cc1	x	0	68	-5	i	0.97	101
Cc1cc(NC(=O)COC(=O)C2CCN(S(=O)(=O)c3c(Cl)cccc3Cl)CC2)no1	-1.2	-23	129	-5	i	0.96	104
CCCOC(=O)c1ccc2c(c1)C(=O)N(c1ccccc1)C2=O	-1.7	64	66	-2	i	0.87	103
CCc1ccccc1NC(=O)CC1SCCNC1=O (stereo not given)	x	-13	72	-6	i	0.73	96
CCCn1nc2cc(C(=O)NCc3ccc(C)cc3)ccc2c1OCC	-4.1	x	x	2	i	0.86	101
O=C(CSc1nnc(CNC(=O)c2ccccc2F)o1)Nc1ccc2c(c1)OCCO2	-1.1	4	91	-4	i	0.98	94
Cc1cc(Nc2ccc(F)c(Cl)c2)n2nc(C)nc2n1	-0.5	15	134	-8	x	x	100
CCCc1cc(N2CCCC(C(=O)NCC)C2)n2ncnc2n1 (stereo not given)	-3.3	27	93	-6	i	0.95	102
Cc1nnc(NC(=O)c2cccc(S(=O)(=O)N3CCc4ccccc43)c2)s1	-0.8	14	127	5	i	0.87	108
CN(NC(N)=O)c1ncc(C(F)(F)F)cc1Cl	-2.7	-15	94	-8	i	0.94	99
CCn1c(SCc2ccc(C(=O)Nc3cc(C)cc(C)c3)cc2)nnc1-c1ccncc1	-3.4	-6	114	3	i	1	99
COC(=O)c1ccc(Cn2c(CN3CCOCC3)nc3ccccc3c2=O)o1	-1.5	12	90	-1	i	1.1	94
Cc1cccc(-n2c(SCC(=O)N3CCCC3)nnc2-c2ccccn2)c1C	-0.7	x	x	9	x	x	106
Cc1nc(N)nc(N/N=C/c2ccccc2)n1	x	x	x	x	i	1.1	98
Cc1nccn1-c1c([N+](=O)[O-])c(=O)n(C)c2ccccc12	x	x	x	x	i	0.91	103
c1ccc2c(N3CCCCC3)nnc(N3CCCCC3)c2c1	-0.6	23	88	5	i	0.98	106
Nc1nc(-c2ccc3c(c2)CCO3)cs1	x	x	x	3	i	0.99	114
COc1ccccc1-n1cc(-c2ccc([N+](=O)[O-])cc2)[nH]c1=S	x	x	x	x	i	0.98	101
Cc1ccc2cc(C(c3nnnn3CC3CCCO3)N3CCCC4(CCCCC4)C3)c(=O)[nH]c2c1 (stereo not given)	-0.5	8	89	4	x	x	x
CC1(C)Cc2c(sc3ncn(N)c(=N)c23)CO1	-2.9	x	x	-3	x	x	102
COP1(=O)C=C[C@H](N(Cc2ccccc2)S(=O)(=O)c2ccccc2[N+](=O)[O-])[C@@H](C)O1 (stereo not given in full)	x	x	x	x	i	0.96	99
CCn1cc(C(=O)N2CC(C)CC(C)C2)c(=O)c2cc(S(=O)(=O)N(C)C)ccc21 (stereo not given)	x	x	x	-5	x	x	99
CCOC(=O)c1sc(NC(=O)CSc2nc(C)cc(C(F)(F)F)n2)c(C#N)c1C	-0.7	7	112	-5	i	0.98	86
COCCN(C(=O)c1ccccc1F)c1c(N)n(Cc2ccccc2)c(=O)[nH]c1=O	x	x	x	3	i	0.88	92
CCOc1ccccc1NC(=O)c1cccc(NC(=O)C(C)C)c1	x	-14	99	-14	i	0.86	104
O=C(Nc1c2n(c(=S)n(-c3ccccc3)c1=O)CCCCC2)c1ccccc1	x	-51	68	-2	i	1	101
CN1CCC(Oc2ccccc2Sc2ccc(C(F)(F)F)cc2)CC1	0.9	-45	139	4	i	0.75	108
Cc1ccc(S(=O)(=O)/N=C(/NC(=S)Nc2cccc(C)c2)c2ccccc2)cc1	-2.6	30	106	-10	x	x	79
COc1ccc(-c2cc(-c3ccc(Br)cc3)nc3ncnn23)cc1OC	0.8	-23	79	3	i	0.81	102
CCOc1ccc(N2C(=O)CN(CC(=O)OC)C2=S)cc1	x	29	148	3	i	0.95	105
COc1ccc2nc(N3CCCCC3)c(/C=C3\SC(=S)NC3=O)cc2c1	x	x	x	x	u	x	60
Cn1nc(C(=O)NCc2ccccc2)c2ccccc2c1=O	-2.5	36	158	5	i	0.85	109
CCOc1ccc(Nc2nc(Cc3nnc(SCC(=O)NCc4ccco4)n3CC)cs2)cc1	12*	-80	88	2	i	1.1	111
O=C1c2ccccc2CCC1C(O)c1ccccn1 (stereo not given)	-2.7	0	111	-6	i	0.88	109
NC(=O)N/N=C/C=C/c1ccc(F)cc1	x	x	x	x	i	0.94	95
FC(F)(F)c1ccc(Sc2n[nH]c(C(F)(F)F)n2)nc1	x	x	x	x	i	1.3	102
CCCOc1ccc(C(CC(=O)O)NC(=O)c2sc3ccccc3c2Cl)cc1 (stereo not given)	x	x	x	-4	i	0.94	106
Nc1ccc2c(c1)OC1(CCCCC1)O2	x	15	100	10	i	0.96	100
CC(C)CC1(C)NC(=O)N(CC(=O)Nc2ccc3c(c2)CCC3)C1=O (stereo not given)	x	x	x	0	i	0.93	89
C/C(=N/NC(=O)c1sc(NS(=O)(=O)c2ccccc2)nc1C)c1ccccc1	-2.0	x	x	1	i	1.1	104
CC(NC(=O)OC(C)(C)C)C(=O)Oc1ccc2ccc(=O)oc2c1 (stereo not given)	7.3	x	x	-12	i	0.92	105
COCCn1c(SCC(=O)N2CC(=O)Nc3ccccc32)nc2ccccc21	-0.2	-49	110	-5	i	0.94	105
CCOC(=O)c1sc(Nc2ccc(C)cc2C)nc1C	-3.9	29	132	-7	i	0.87	101
Cc1ccc(CNC(=O)c2ccc(Cl)cc2[N+](=O)[O-])cc1	-4.3	-46	84	-5	i	1.2	99
CC1(C)C(=O)C2(CCCCC2)C(=O)OC1c1ccc(O)cc1 (stereo not given)	-2.5	-16	67	-5	i	1.2	101

(continued)
smiles	GALR2 ag	Insulin prom inh	Insulin prom inh cell count	PKD1 kinase inh	HSV replic up	HSV replic up primary fold	RGS16-Gao HTS
O=C(Nc1nnc(COc2ccc(F)cc2)s1)c1ccco1	x	x	x	x	i	1.1	96
CC(=O)/C(C#N)=C1\NC(=O)C(Cc2ccc(C)c(Cl)c2)S1 (stereo not given)	x	x	x	x	u	x	108
Cc1cccn2cc(CSc3nnc(Nc4ccc(C(C)C)cc4)s3)nc12	-0.7	x	x	2	i	0.94	99
Cc1cccc(NC(=O)C2(c3ccccc3)CC2(Cl)Cl)c1 (stereo not given)	0.1	x	x	-13	i	0.99	105
COc1ccc(-c2noc(Cc3ccc(Cl)cc3)n2)cc1OC	-0.8	x	x	3	i	0.87	93
COC(=O)c1sc(=S)n(-c2cc(F)ccc2F)c1N	-3.5	-25	150	-8	i	0.82	86
CCOc1ccc(CN(C)C(=O)c2cccnc2SC)cc1OC	x	7	139	-4	x	x	101
CN(C)S(=O)(=O)c1ccc(S(=O)(=O)N(Cc2ccco2)Cc2ccccc2Cl)cc1	-4.4	-17	104	-2	i	0.66	103

Copied from the list.
O=C(Nc1nnc(COc2ccc(F)cc2)s1)c1ccco1 @ HSV replic up primary fold = 1.1
CC(=O)/C(C#N)=C1\NC(=O)C(Cc2ccc(C)c(Cl)c2)S1 (stereo not given) @ RGS16-Gao HTS = 108
CN(C)S(=O)(=O)c1ccc(S(=O)(=O)N(Cc2ccco2)Cc2ccccc2Cl)cc1 @ Insulin prom inh cell count = 104
Cc1cccc(NC(=O)C2(c3ccccc3)CC2(Cl)Cl)c1 (stereo not given) @ HSV replic up primary fold = 0.99
COC(=O)c1sc(=S)n(-c2cc(F)ccc2F)c1N @ RGS16-Gao HTS = 86

(listing goes on)
smiles	GALR2 ag	Insulin prom inh	Insulin prom inh cell count	PKD1 kinase inh	HSV replic up	HSV replic up primary fold	RGS16-Gao HTS
CSc1nc(-c2ccco2)cc(C(F)(F)F)c1C#N	-1.8	6	143	-2	i	0.94	129
O=C(N/N=C/c1ccco1)C1CC1	-0.1	-10	121	-4	i	0.92	104
O=C(Nc1ccccc1C(F)(F)F)N1CCCC1c1cccnc1 (stereo not given)	x	x	x	x	i	0.88	89
CC1=Nc2ccc(C)cc2/C1=C/c1c(N)n2c(S(=O)(=O)C(C)C)nsc2nc1=O	x	-73	89	-3	i	0.97	123
Cc1cc(C(=O)COC(=O)CNC(=O)c2ccco2)c(C)n1Cc1ccco1	-0.9	x	x	-6	i	1.1	107
CC(=O)c1ccc(S(=O)(=O)Nc2cc3c(cc2C(C)=O)OCO3)cc1	x	-36	35	1	i	0.96	108
Cc1[nH]nc(SCC(=O)Nc2ccc(C#N)cc2)c1[N+](=O)[O-]	-1.2	x	x	0	i	0.99	112
O=C(c1cccc(F)c1)N1CCN(c2cccc(Cl)c2)CC1	-2.5	x	x	-6	i	0.76	107

Arranged by formula weight (ascending): some entries from above.
smiles	GALR2 ag	Insulin prom inh	Insulin prom inh cell count	PKD1 kinase inh	HSV replic up	HSV replic up primary fold	RGS16-Gao HTS
O=C(N/N=C/c1ccco1)C1CC1	-0.1	-10	121	-4	i	0.92	104
CC(=O)c1ccc(S(=O)(=O)Nc2cc3c(cc2C(C)=O)OCO3)cc1	x	-36	35	1	i	0.96	108
Cc1cc(C(=O)COC(=O)CNC(=O)c2ccco2)c(C)n1Cc1ccco1	-0.9	x	x	-6	i	1.1	107

(list continues)
smiles	GALR2 ag	Insulin prom inh	Insulin prom inh cell count	PKD1 kinase inh	HSV replic up	HSV replic up primary fold	RGS16-Gao HTS
CC(=O)c1c(O)c2ccccc2n(C)c1=O	x	x	x	10	i	1	90
O=C(O)CC1S/C(=N/N=C/c2ccc(-c3ccccc3[N+](=O)[O-])o2)NC1=O (stereo not given)	-2.1	x	x	5	i	0.93	104
COC(=O)C1=C(C)N(Cc2ccccc2)C(=O)N[C@H]1c1cccs1	x	x	x	x	i	0.94	100
CCOC(=O)c1cccc(NC(=O)C(NS(=O)(=O)c2ccc3c(c2)CCN3C(C)=O)C(C)C)c1 (stereo not given)	-0.8	x	x	1	i	0.72	102
CC(C)c1ccc(NC(=S)Nc2ccc3cn[nH]c3c2)cc1	x	x	x	13	i	0.97	98
CC(=O)OC1CCC2(C)C(COc3ccc4ccc(=O)oc4c3)C(C)(O)CCC2C1(C)C (stereo not given)	-1.1	x	x	2	i	0.87	65
O=C(NN1C(=O)C2C3C=CC(C4CC34)C2C1=O)c1ccc(Br)cc1 (stereo not given)	x	x	x	1	i	1	106
